# Bioassay records from PubChem.
# D2 agonist: activates the human D2 dopamine receptor; activation, % (no concentration beside the values); hit rate 0.084% among 360,000; DiscoveRx PathHunter D2 beta-arrestin, luminescence, 90 min; 100% = 57 uM dopamine signal; P14416; in the data active = activation above about 40%; inconclusive = about 15% to 40%; inactive = below about 15%; further: compound concentration not given in the record; the text of the record calls up to 30% inactive
# Target sequence (P14416 whole entry, looked up): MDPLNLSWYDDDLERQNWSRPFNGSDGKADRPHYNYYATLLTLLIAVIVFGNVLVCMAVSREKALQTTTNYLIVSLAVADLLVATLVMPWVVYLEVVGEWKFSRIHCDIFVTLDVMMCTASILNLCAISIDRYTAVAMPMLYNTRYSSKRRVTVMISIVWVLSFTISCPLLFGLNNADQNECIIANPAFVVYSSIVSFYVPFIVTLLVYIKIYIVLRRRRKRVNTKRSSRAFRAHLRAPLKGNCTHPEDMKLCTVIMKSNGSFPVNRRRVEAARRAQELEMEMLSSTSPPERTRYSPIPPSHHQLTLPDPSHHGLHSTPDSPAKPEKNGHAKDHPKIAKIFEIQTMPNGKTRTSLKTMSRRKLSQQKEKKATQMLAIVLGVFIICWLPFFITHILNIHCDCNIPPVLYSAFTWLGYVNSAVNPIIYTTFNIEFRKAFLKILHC
#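 Agonist mode: compounds alone added to overnight-plated D2 PathHunter cells for 90 min at 37 C, with 57 uM final dopamine (EC100) defining full response. Beta-arrestin recruitment detected by chemiluminescent reagent, read after 1 h at ambient temperature.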
# Six1-Eya2 blk: blocks human Six1 binding to Eya2. activity change, % (test concentration not listed). AID 651725. hit rate 0.56% among 360,000. AlphaScreen GST-Six1/His-Eya2 binding, biochemical; hits give low values; control for the full effect not named in the record; in the data active = activity change below about -65%; inconclusive = about -30% to -65%; inactive = above about -30%; further: on the % scale 0 is the no-effect control and ±100 the full control effect; compound concentration not given in the record
#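 AlphaScreen luminescence read after one hour at 37 °C in darkness. Pin-transferred compounds met GST-Six1 and His-Eya2 protein (5X stock 250 nM/500 nM) plus glutathione donor and Ni-chelate acceptor beads (5X, 50 ug/mL).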
# PINK1 expr mod: changes PINK1 expression. PINK1 immunofluorescence, high-content cytometry, 24 h. Potency, µM (top dose mostly 76.6 µM), inactives show at the highest dose activation (PINK1 increase), hits mostly activators. hit rate 0.2% among 410,000; active = well fitted activation curve with a large enough effect; inconclusive = small, poorly fitted or top-dose-only effect; inactive = flat fitted curve, though single readings scatter; cell line not stated here;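 further: potency means the concentration at half of the fitted maximal effect; % of control where 0% means no effect; nearly all actives have a fitted effect of over 65% in size; a mitochondrial uncoupler was the plate control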
#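 Measures PINK1 amount and localization on or inside mitochondria by immunofluorescence. Stable cells get compounds at 5 concentrations for 24 hours before fixation and staining; CCCP controls included.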
# TRPML1 inh: human mucolipin-1 channel inhibition; hit rate 0.02% among 390,000; TRPML1-inducible cells, Ca2+ dye fluorescence, FDSS; hits give low values; inhibition of EC80 agonist-evoked calcium signal; AID 624415; activity change, negative = inhibition, % (test concentration not listed); Q9GZU1; in the data active means activity change below about -50%; inconclusive means about -30% to -50%; inactive means above about -30%;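 further: stimulus is agonist 54-4 at its EC80 concentration; on the % scale 0 is the no-effect control and ±100 the full control effect; compound concentration not given in the record; the text of the record puts the active cut at -80%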
# Target sequence (Q9GZU1 whole entry, looked up): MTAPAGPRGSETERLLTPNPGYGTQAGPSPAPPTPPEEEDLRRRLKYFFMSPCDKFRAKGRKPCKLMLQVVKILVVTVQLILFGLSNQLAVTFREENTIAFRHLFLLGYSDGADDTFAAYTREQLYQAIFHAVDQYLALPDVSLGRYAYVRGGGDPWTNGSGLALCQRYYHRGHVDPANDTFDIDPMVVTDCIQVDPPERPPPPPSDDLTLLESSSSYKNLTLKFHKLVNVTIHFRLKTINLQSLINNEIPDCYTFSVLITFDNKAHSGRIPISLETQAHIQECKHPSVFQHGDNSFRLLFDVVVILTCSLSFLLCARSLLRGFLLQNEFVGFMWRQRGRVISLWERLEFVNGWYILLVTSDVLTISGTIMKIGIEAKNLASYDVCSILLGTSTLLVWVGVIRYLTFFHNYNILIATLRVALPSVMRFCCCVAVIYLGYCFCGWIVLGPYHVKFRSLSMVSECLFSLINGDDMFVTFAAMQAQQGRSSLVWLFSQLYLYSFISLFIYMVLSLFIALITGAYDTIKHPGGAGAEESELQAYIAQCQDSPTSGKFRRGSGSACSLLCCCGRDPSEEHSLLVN
#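 TRPML1-DL cells, Tet-induced overnight (~16 h, 37 °C) at 1,500 cells/well, were loaded with Ca8 no-wash dye plus quencher for 45-90 min at room temperature. Compounds were pinned during FDSS kinetic reading; agonist 54-4 at EC80 (4 uM final) then added.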
# D2 potentiator: human D2 receptor positive allosteric modulation; DiscoveRx D2 beta-arrestin cells, luminescence, 90 min; 100% = 57 uM dopamine signal; P14416; hit rate 0.23% among 360,000; potentiation, % (test concentration not listed); AID 624464; active = potentiation of 50% or more; inconclusive = 30% to 50%; inactive = 30% or less;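 further: compound concentration not given in the record; tested on top of an EC20 dose of dopamine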
#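 D2 cells co-treated with compound plus 50 nM dopamine (EC20) for 90 min at 37 deg C to detect potentiation. Beta-arrestin recruitment was read as enzyme-fragment luminescence after 1 h at ambient temperature. Full response was set by 57 uM dopamine.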
# TRPML1 agonist: activates the human TRPML1 channel. TRPML1-expressing cells, Ca2+ dye fluorescence, FDSS; host cell line not named in the record; reference of the full effect not given here. activation, % (no concentration beside the values). hit rate 0.12% among 410,000. AID 624414; in the data active = activation above about 50%; inconclusive = about 30% to 50%; inactive = below about 30%; further: 0% is about no effect; the text of the record puts the active cut at 80%
#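 Cells: TRPML1-DL, 1X Tet inducer, ~16 h at 37 degrees C/5% CO2. Dye: ABD Ca8 no-wash + quencher, 45-90 min RT. Read: 10 s baseline, compound add, 110 s agonist phase; 54-4 EC80 (4uM final), 110 s antagonist phase.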
# * marks the source's active call; other numbers are inactive results; ? = inconclusive; · = no result given; & = joins results of further samples; [ ] = dose if it differs, or a comment.
SMILES,D2 agonist,Six1-Eya2 blk,PINK1 expr mod,TRPML1 inh,D2 potentiator,TRPML1 agonist
Clc1ccccc1CNCC1CCCO1 (configuration not stated),0.3,14,2.1%,43,-8,0.8
NS(=O)(=O)c1ccc(CNC(=O)c2ccc(NS(=O)(=O)c3ccc4[nH]c(=O)[nH]c4c3)cc2)cc1,-0.5,4,-0.5%,9,0,0.5
Cc1ccc(C)c(C(=O)COC(=O)C2CCN(c3ccc(C(F)(F)F)cn3)CC2)c1,-1.5,27,-1.5%,-15,2,1.5
CCc1ccc(NC(=O)COC(=O)c2cccs2)cc1,-0.4,9,1.8%,11,-4,0.7
COc1cc(OC)cc(C(=O)N[C@H](C(=O)OCC(=O)NC(C)c2ccccc2)C(C)C)c1 (some centres not stated),1.0,12,0.8%,19,-3,20
CCCOc1ccccc1C(=O)NCCCC(=O)O,-1.7,42,-3.2%,-5,-9,1.9
COc1ccc(C2=NS(=O)(=O)N(C)C(C(=O)N3CCCCC3)=C2)cc1OC,-4.2,5,4.9%,-1,-3,0.1
CC(Oc1ccccc1F)C(=O)NCC1(N2CCOCC2)CCCCC1 (configuration not stated),·,·,-0.1%,-12,·,1.5
O=C(Cn1cnc(S(=O)(=O)N2CCCC2)c1)Nc1ccccc1,-4.4,-4,0.4%&0.0%,9&-18,-12,-0.1&-0.1
NC(=S)N/N=C/c1ccc2ccccc2c1,-2.5,-3,0.8%,0,-17,0.3
COc1ccc(C(CC(=O)N2CCOCC2)c2c(OC)cc(OC)c3ccc(=O)oc23)cc1 (configuration not stated),0.5,1,1.1%,8&-11,-3,1.2&-0.3
O=C(NCCN1CCOCC1)c1ccc(Cl)c([N+](=O)[O-])c1,-3.9,0,-0.4%,16,-9,0.0
O=C(NC1CCCCCC1)c1ccc2c(=O)n3c(nc2c1)CCCCC3,-4.9,-4,2.6%,-21,5,-0.8
CC(=O)c1ccc(N2CCN(S(=O)(=O)c3cn(C)c(C)n3)CC2)cc1,-4.0,3,1.9%,10,-6,-0.4
CCCNC(=O)COC(=O)c1ccc(S(=O)(=O)N2CCCC2)cc1,-2.1,4,-0.7%,-1,0,0.6
COc1cc2ccccc2cc1C(=O)Nc1ccc2oc(-c3cccc(C)c3)nc2c1,·,·,-1.0%,-14,·,0.9
COc1ccccc1/C=N/NC(=O)CC(=O)NCc1cccnc1,-3.3,-3,2.1%,1,1,0.4
Cc1ccc(CN(Cc2ccco2)C(=O)COc2ccccc2C)cc1,·,·,0.3%,7,·,0.6
O=[N+]([O-])c1ccc(Sc2ccc(F)cc2)nc1,2.6,-12,-0.3%,-3,0,4.5
O=C(NC12CC3CC(CC(C3)C1)C2)c1cccnc1Cl,-0.4,-5,0.8%,0,-1,0.7
COCc1c(C(=O)N/N=C(\C)c2ccc(Cl)s2)nnn1-c1nonc1N,-6.3,10,1.3%,13,-4,2.7
Cc1nn(-c2ccc(C(=O)NCC(c3ccco3)N3CCCC3)cc2)c(C)c1Cl (configuration not stated),11,-4,-0.5%,0,-2,0.0
Nc1ccc(C(=O)Oc2ccc([N+](=O)[O-])cc2)cc1,-3.7,-29,0.2%,0,-18,0.4
CSc1nc2sc3c(c2c(=O)n1-c1ccccc1)CCC(C(C)(C)C)C3 (configuration not stated),·,·,-3.4%,3,·,0.3
O=C1CSC(=Nc2ccccc2)N1,-1.8,3,0.6%,-1,0,0.6

# Continued:
SMILES,D2 agonist,Six1-Eya2 blk,PINK1 expr mod,TRPML1 inh,D2 potentiator,TRPML1 agonist
CCOc1cc(-c2noc(CCC(=O)NC3CCCCC3)n2)ccc1OC,-5.0,-2,2.0%,-9,-26,-1.6
CCOC(=O)c1sc(-c2ccccc2)cc1NC(=O)Nc1ccc([N+](=O)[O-])cc1,1.1,9,0.2%,18,-4,0.3
COC(=O)C1CC(=O)c2sccc2C1 (configuration not stated),-3.3,8,0.0%,-3,-3,-0.2
COc1cccc(C(C2C(=O)CC(C)(C)CC2=O)C2C(=O)CC(C)(C)CC2=O)c1,0.4,-7,0.4%,25,1,-0.6
O=C(COc1ccccc1Cl)N(Cc1ccco1)Cc1ccco1,·,·,0.5%,6,·,4.3
O=C(CSc1ccccc1)N1CCN(S(=O)(=O)c2cccs2)CC1,9.8,0,-1.4%,-10,-4,0.3
Cc1ccc2nc(COc3ccc(Cl)cc3)cc(=O)n2c1,-4.1,2,3.4%,22,-2,5.3
ONC(=Nc1ccccc1)c1ccccc1Cl,4.4,7,-1.0%,-5,10,-0.7
Cc1nc2c(-c3ccccc3)c(C)nn2c(C)c1CCC(=O)N1CCN(c2ccccc2)CC1,·,·,-0.3%,-8,·,-1.2
CNS(=O)(=O)c1cccc(C(=O)OCC(=O)NC(C)CCc2ccccc2)c1 (configuration not stated),2.2,-1,0.2%,13,-2,-0.3
O=C1CC(N2CCN(S(=O)(=O)c3ccc([N+](=O)[O-])cc3)CC2)C(=O)N1c1ccccc1F (configuration not stated),4.9,0,1.6%,-7,5,2.7
CC1Cc2ccccc2N1C(=O)CSC1=NCCS1 (configuration not stated),-1.6,2,11µM*,-15,-11,0.6
COC(=O)C[C@H](NC(=O)Cn1cnc2c(SC)nc(N)nc21)C(=O)OC,-0.4,6,0.0%,-8,·,-0.3
COC(=O)c1cccc(NC(=O)CSc2nc3cccnc3n2C)c1,-0.6,-1,-0.6%,7,2,0.1
Cc1c(Cl)cccc1NC(=O)CSc1ncc2c(n1)-c1ccccc1N(C)S2(=O)=O,·,·,6.2%,10,·,1.3
CCOc1ccc(-n2c(=S)sc3c(=O)[nH]c(SCC(=O)C(C)(C)C)nc32)cc1,1.8,-9,15%,20,-3,2.6
O=C(Nc1ccccc1)C1=C[C@H](c2coc3ccccc3c2=O)C[C@H](OCc2ccc(CO)cc2)O1,-0.1,-5,-0.8%,3,-4,-0.3
O=C(NC1CCCC1)c1cccc(S(=O)(=O)N2CCOCC2)c1,-6.0,9,1.0%,0,-12,0.6
CCn1c(SCC(=O)N2CCC(C)CC2)nc2c(c1=O)SCC2,0.9,0,-0.4%,12,9,1.5
C=CCn1c(SCC(=O)NNC(=O)Nc2ccc(C)cc2)nnc1-c1ccccc1,0.5,6,0.0%,8,3,0.6
CC1CCC2(CC1)OCC1(CCC3(COC4(CCC(C)CC4)OC3)C1=O)CO2 (configuration not stated),-1.2,1,1.1%,-7,-3,0.2
CCOc1ccccc1NC(=O)C1CCN(S(=O)(=O)c2ccc3[nH]c4c(c3c2)CCCCC4)CC1,·,·,0.1%,1,·,1.1
COc1c(C)cc(C(=O)C2CCCN(C(=O)Cn3ccc(C)n3)C2)cc1C (configuration not stated),2.3,-2,1.4%,10,-5,-0.1
CCOc1ccc(NC(=O)CN(C)C(=O)CCCOc2ccc(Br)cc2)cc1OCC,-4.0,-5,7.2%,-23,1,0.9
Cc1ccc(-c2cc(C(=O)N3CCN(c4ccc(F)cc4)CC3)c3ccccc3n2)o1,-5.5,-20,0.3%,21,-4,1.1

# Next records
SMILES,D2 agonist,Six1-Eya2 blk,PINK1 expr mod,TRPML1 inh,D2 potentiator,TRPML1 agonist
CCCCCCNC(=O)C(C#N)c1nc2ccccc2nc1N1CCOCC1 (configuration not stated),-1.1,9,?,3,5,-0.4
Cc1cc(C)n2nc(-c3ccc(Cl)cc3)nc2n1,·,·,-1.7%,0,·,-0.6
N=C1SCC(=O)N1c1nc(-c2ccccc2)cs1,-3.0,3,-0.9%[38.3 µM],-11,-6,-0.4
O=C(CNS(=O)(=O)c1ccccc1)OCC(=O)c1ccc(OC(=O)c2ccccc2)cc1,1.2,?,8.0%[38.3 µM],16,2,2.6
COC(=O)c1scc(-c2ccc(C)cc2)c1S(=O)(=O)N1CCN(c2ccc(OC)cc2)CC1,·,·,0.5%,-6,·,0.2
CC(C)C[C@H](NC(=O)N1CC(=O)Nc2ccccc21)C(=O)N[C@@H](Cc1c[nH]c2ccccc12)C(=O)O,-4.5,2,1.9%,·,-5,·
CN(C)C(CNC(=O)c1ccc(C(F)(F)F)cc1)c1ccco1 (configuration not stated),-3.4,4,-0.5%,-5,-54,0.4
Nc1nc2ccc(C(=O)Nc3ccc(N4CCOCC4)cc3)cc2s1,-0.3,33,2.5%,-11,-6,0.4
CC(=O)Nc1ccc(NC(=O)CSc2nnc3ccc(-c4cccnc4)nn23)cc1,2.0,-12,1.8%,6,1,0.4
CCn1nc(C(=O)NNC(=O)c2ccc(OC(F)F)cc2)c2ccccc2c1=O,0.3,0,-0.6%,5,-11,2.1
Cc1ccc(S(=O)(=O)CCC(=O)OCC(=O)Nc2ccc(N3CCOCC3)cc2)cc1,-0.6,-1,1.1%,-9,20,-0.3
COc1ccc(Cl)cc1NC(=O)C1Cc2cc(S(=O)(=O)N3CCCC3)ccc2N1C(C)=O (configuration not stated),1.2,3,-0.6%,0,-36,-0.5
Cc1ccc(C(=O)N2CCc3cc(CNS(=O)(=O)c4ccc(Cl)s4)ccc32)cc1,·,·,4.0%,25,·,1.1
Cc1nnc(SCC(=O)Nc2nc3c(s2)CC(C)CC3)s1 (configuration not stated),0.2,-6,-1.2%,12,-12,-0.8
CC1CCCCC1NC(=O)C1CCN(S(=O)(=O)N2CCCCCC2)CC1 (configuration not stated),-2.6,5,3.7%[38.3 µM],-10,-17,-0.2
COCCNC(=O)CN(c1ccccc1OC)S(C)(=O)=O,-0.9,2,16%[38.3 µM],9,-12,-0.3
CCC(C)N=Cc1c(NCc2ccco2)nc2c(C)cccn2c1=O (configuration not stated),-1.4,-1,0.3%,3,-8,-1.5
COc1cc(/C=C/C(=O)OC(C)C(=O)c2ccccc2)cc(OC)c1OC (configuration not stated),-1.7,2,8.9%,4,-7,0.7
CC(C)(O)P(=O)(O)CCc1ccccc1,-2.3,-20,0.2%,10,-3,-0.1
CCOC(=O)c1c(C)[nH]c(C(=O)COC(=O)C2CC2C)c1C (configuration not stated),-0.3,-7,-4.0%,7,-7,-0.3
COc1ccc(C2CC(c3ccc(OC)cc3OC(C)=O)=NN2C(=O)c2ccccc2)cc1 (configuration not stated),-4.8,-9,0.3%,-8,-8,-0.2
Cc1ccc(NC(=O)C(C)C(=O)Nc2ccc(C)cc2)cc1,-6.7,-7,4.0%,-9,-8,0.2
Cc1ccc(C(CC(=O)O)C2CCOC(C)(C)C2)cc1 (configuration not stated),1.1,3,·,-14,11,0.1
